Bm FixLJ act: activators of Burkholderia fixLJ two-component system; B. multivorans fixK-promoter GFP reporter, 18 h; stronger effect = higher value; z-score (test concentration not listed); actives 0.3% (n = 29,000); AID 1918990;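 active means replicate mean overnight rise in green fluorescent reporter signal, 3 or more SD over negative controls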;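 further: score is relative to vehicle wells of the plate; 300 nL library stock went into each well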
Active calls of the source: *.

SMILES	Bm FixLJ act
COc1ccc(S(=O)(=O)N(CC(=O)NCCSc2ccc(C)cc2)c2ccc(C)cc2)cc1	2.1
CCN(C(=O)CCc1nc(-c2ccc(C)cc2)no1)c1cc(C)ccc1C	1.6
CN1CC(=O)N2CCN(Cc3nn(C)c4cccc(Cl)c34)CC2C1=O (stereo not drawn)	-0.26
Cc1ccc(N2CCN(S(=O)(=O)c3cccc4ccccc34)CC2)cc1Cl	0.44
Cc1ccc(CNC(=O)CCCn2c(=O)c3ccccc3n(Cc3ccccc3Cl)c2=O)cc1	0.14
Cc1ccc(-c2nnc(SCC(=O)NCc3ccccc3)o2)cc1	-1.1
CCC1=NOC(CNC(=O)Nc2cccc(NC(=O)COC)c2)C1 (stereo not drawn)	-1.3
COc1ccc(NC(=O)Cn2c(=O)n(CCC(C)C)c(=O)c3cccnc32)cc1Cl	-2
C#C[C@]1(O)CC[C@H]2[C@@H]3CCC4=CC(=O)CC[C@]4(C)[C@H]3CC[C@@]21C	-1
S=P(N1CC1)(N1CC1)N1CC1	-2.8
CCCCN(Cc1cccnc1)C(=O)C(O)c1ccc(C(F)(F)F)cc1 (stereo not drawn)	-2.5
O=C(c1ccccc1)N1CC2CCC(C1)N(C(=O)c1ccc(CO)cc1)C2 (stereo not drawn)	-4.4
CCOc1ccccc1C(=O)N(Cc1ccco1)Cc1ccco1	-0.04
COc1ccc2nc(NC(=O)c3nc(SC(C)C)ncc3Cl)sc2c1	1.6
CC(=O)NCCNC(=O)CCCc1nnc2n(C)c(=O)c3sccc3n12	-1.2
CCOC(=O)c1ccccc1NC(=O)Cn1c(=O)n(CCC(=O)NCc2ccccc2OC)c(=O)c2ccccc21	-0.53
Cc1ccc(Cl)cc1N1CCN(C(=O)Cn2nc(C)n3c(cc4sccc43)c2=O)CC1	0.18
Cc1cc(C)cc(NC(=O)c2cccc(C(=O)Nc3cc(C)cc(C)c3)c2)c1	0.47
CCOC(=O)c1cnc2c(Cl)c(Cl)ccc2c1Nc1ccc(N(C)C)cc1	-0.57
COc1ccc(C2(C(=O)N(C)C(C)Cc3cnccn3)CCCC2)cc1 (stereo not drawn)	0.95
CN(CC(=O)Nc1ccc(Cl)c(C(=O)O)c1)Cc1ccn[nH]1	0.22
CCOc1ccc(NC(=O)Cn2c(=O)oc3cc(S(=O)(=O)N4CCC(C)CC4)ccc32)cc1	-7.9
O=c1oc2ccccc2c(N2CCN(c3ccc(F)cc3)CC2)c1CN1CCCC1	-0.14
CC1CCCCN1CCCNC(=O)Cn1ncc2c3ccccc3n(Cc3ccccc3)c2c1=O (stereo not drawn)	-2.2
CCOc1ccccc1CNC(=O)Cn1c(-c2ccccc2)cc(C(C)=O)c1C	-1.4
Cc1ccc2c(=O)cc(C(=O)Nc3ccc(S(=O)(=O)N4CCCCCC4)cc3)oc2c1	-0.71
CCCCCn1c(=O)[nH]c2cc(C(=O)Nc3ccc(F)cc3)ccc2c1=O	-1.5
Cn1ccnc1CN1CCN(C(=O)NCc2cc3cc(F)ccc3[nH]2)CC1	0.14
Cc1cccc(C)c1OCc1nc2c3cnn(-c4ccccc4Br)c3ncn2n1	-0.84
O=C(Cn1cc(C(=O)c2cccs2)c2ccccc21)Nc1ccc(Br)cc1	1
COc1ccc(S(=O)(=O)N2CCC(C(=O)Nc3ccccc3)CC2)cc1OC	-2.6
CCCc1nc2sc3c(N4CCC(C)CC4)ncnc3c2c2c1CCCC2	-1.2
COc1ccc(OC)c(C2CC(=O)Oc3c2c(=O)n(C)c2ccccc32)c1 (stereo not drawn)	-0.86
CCC(C(=O)N1CCc2c(nc(-c3cccnc3)[nH]c2=O)C1)c1ccccc1 (stereo not drawn)	0.06
COc1ccc2[nH]cc(CCNC(C)=O)c2c1	-1.3
CC1CCN(S(=O)(=O)c2ccc3c(c2)N(CC(=O)NCCc2ccc(Cl)cc2)C(=O)CO3)CC1	1.2
CC(=O)NCCCC(=O)N1CC(O)C(Cc2ccc3ccccc3n2)C1 (stereo not drawn)	0.09
Cc1oc(-c2cccc(C(F)(F)F)c2)nc1CN1CCNC(=O)C1C (stereo not drawn)	-0.86
Cc1ccc2nc(-c3ccc(Cl)c(NC(=O)c4ccc5c(c4)OCCO5)c3)oc2c1	-1.8
OC1CCCN(c2ccnc(N3CCN(c4nc5ccccc5o4)CC3)n2)C1 (stereo not drawn)	-0.75
COc1ccccc1CCNC(=O)C1CSC(C)(C)C(=O)N1 (stereo not drawn)	-1.2
O=C(NCc1ccccc1)C1CCN(C(=O)c2cnn(-c3ccccc3)c2-n2cccc2)CC1	-0.55
Cc1ccc2nc(-c3cccc(Cl)c3)c(Nc3ccc4c(c3)OCO4)n2c1	-0.15
CCCN(CCC)C(=O)Cn1c(=O)n(-c2ccc(OC)cc2)c(=O)c2ccc(C(=O)NCc3ccc(C)cc3)cc21	-1.4
Cc1ccc2nc(/C(C#N)=C/c3ccc(-c4ccc(C(=O)OC(C)C)cc4)o3)[nH]c2c1	-22
CN(C)c1nc(-c2ccccc2)nc2c1CCN(C(=O)CCCCCN)C2	0.82
CCOc1ccccc1NC(=O)CCc1c(C)nc2cc(-c3ccccc3)nn2c1C	-0.28
CCCc1ccc(OCC(=O)Nc2sc(C(=O)OCC)c(C)c2C(=O)OCC)cc1	0.54
CCOC(=O)c1ccc(NC(=O)C2(S(=O)(=O)c3ccc(Cl)cc3)CC2)cc1	-2.1
COc1ccc(C(C(=O)Nc2ccc(C(C)C)cc2)N(C)C(=O)Cc2cccs2)cc1 (stereo not drawn)	2.8
Cc1ccc(C)c(Nc2nnc(-c3ccc(C)c(S(=O)(=O)N4CCN(C)CC4)c3)c3ccccc23)c1	-0.75
CC1CN(C(=O)Nc2ccc(C(=O)NCCc3ccccc3Cl)cc2)c2ccccc2S1 (stereo not drawn)	-0.04
Cn1c(=O)cc(SCC(=O)Nc2cccc(C#N)c2)c2ccc(Cl)cc21	-0.87
COc1cc(C(=O)N2CCOCC2)cc(OC)c1OC	-1.1
O=C(c1cccc(-c2ncn[nH]2)c1)N(Cc1cocn1)Cc1cocn1	-0.86
Cc1ccc(NC(=O)C2CCCN(S(=O)(=O)c3ccc(C)cc3)C2)cc1 (stereo not drawn)	-0.24
COc1cccc(Cn2c(SCC(=O)N3CCN(c4ccc(F)cc4)CC3)nc3ccccc32)c1	-0.29
COc1c(C)cccc1C(=O)Nc1ccc(-c2nc3ccccc3s2)c(Cl)c1	-2.7
COc1ccc(NC2=C(c3ccc(C(F)(F)F)cc3)C(=O)c3ccccc32)cc1	-1.1
Cc1ccccc1S(=O)Cc1ccc(C(=O)NC2CCCCCC2)o1 (stereo not drawn)	-0.78

Later entries.
SMILES	Bm FixLJ act
O=C(NCCn1ccc2ccccc21)c1ccc(Cl)cc1	-0.59
O=C(/C=C/C=C/c1ccc2c(c1)OCO2)N1CCCCC1	-2.1
CCN(CC)S(=O)(=O)c1ccc2c(c1)c(=O)c(C(=O)N(C)Cc1ccccc1)cn2C	-1.1
COc1ccccc1-n1c(SCC(=O)Nc2ccc(C)cc2)nc(O)cc1=O	-0.05
Cc1cc(C)c2oc(C(=O)Nc3ccc(S(=O)(=O)N(C)c4ccccc4)cc3)cc(=O)c2c1	-0.8
Cc1nc(N)nc(N2CC(O)C(Cc3ccnc4ccccc34)C2)c1Cl (stereo not drawn)	0.95
COc1cccc(NC(=O)c2sc3nc(C)c(C(=O)Nc4ccc(C)cc4C)c(-c4ccccc4Cl)c3c2N)c1	0.62
O=C(Cn1c(=O)oc2cc(S(=O)(=O)N3CCCCC3)ccc21)NCc1ccc(Cl)cc1	-3
CCc1cc2c(cc3c(=O)n(CC(=O)NC4CCC(C)CC4)ncn32)s1 (stereo not drawn)	-4
Cc1ccc(CCNC(=O)CCCn2c(=O)c3ccccc3n(Cc3ccccc3C)c2=O)cc1	-1.4
Cc1ccc2c(=O)cc(C(=O)Nc3ccc(S(=O)(=O)Nc4onc(C)c4C)cc3)oc2c1C	-0.49
COc1ccc(C(=O)c2sc3nc(-c4ccc(C)cc4)cc(C(F)(F)F)c3c2N)cc1	-3.4
CCc1nn(Cc2cc(C)ccc2C)c(=O)c2cc3cc(C)ccc3n12	-0.37
CCOC(=O)N1CCc2c(sc3c2c(=O)n(Cc2ccccc2)c(=O)n3CC(=O)Nc2ccc(C)c(C)c2)C1	-0.2
Cc1cc(C)n(Cc2cccc(C(=O)N3CCCC4(CCc5cn[nH]c54)C3)c2)n1 (stereo not drawn)	0.19
Clc1ccc(OCc2nc3ccccc3n2Cc2ccccc2)c(Cl)c1	-0.92
COc1ccc(C(=O)N2CCn3nc(CCC(=O)O)cc3C2)c(OC)c1	-1.2
Cc1ccc(NC(=O)CN(c2ccc(C)cc2)S(=O)(=O)c2cccc3nonc23)cc1	0.2
CCOc1ccc(NC(=O)Cn2c(=O)n(Cc3ccco3)c(=O)c3ccc(C(=O)NC4CCCC4)cc32)cc1	-1.5
CSCc1ccc(C(=O)N2CCCC(c3nccn3CC(N)=O)C2)o1 (stereo not drawn)	0.63
CN(Cc1ccc(-n2cccn2)cc1)C(=O)CCc1nc2ccccc2[nH]1	-2.1
CCn1c2ccccc2c2cc(NC(=O)COc3cc(C)ccc3C)ccc21	1.7
CC1CCc2c(sc(NC(=O)Cn3nnc(-c4ccc(C(F)(F)F)cc4)n3)c2C#N)C1 (stereo not drawn)	-0.02
COc1ccc(-c2cc(C(=O)Nc3sc4c(c3C(N)=O)CCCC4)no2)cc1	-0.45

Exported field by field: part of the list above
> Clc1ccc(OCc2nc3ccccc3n2Cc2ccccc2)c(Cl)c1
  Bm FixLJ act: -0.92

> CCn1c2ccccc2c2cc(NC(=O)COc3cc(C)ccc3C)ccc21
  Bm FixLJ act: 1.7

> CC1CCc2c(sc(NC(=O)Cn3nnc(-c4ccc(C(F)(F)F)cc4)n3)c2C#N)C1 (stereo not drawn)
  Bm FixLJ act: -0.02

> CSCc1ccc(C(=O)N2CCCC(c3nccn3CC(N)=O)C2)o1 (stereo not drawn)
  Bm FixLJ act: 0.63

Next results:
SMILES	Bm FixLJ act
COc1cccc(CNC(=O)COc2cc(=O)n(C)c3ccccc23)c1	-2.3
Cc1ccc(C)c(CN2CCC(CNC(=O)Nc3ccc(Br)cc3F)CC2)c1	-2
COc1cc2c(cc1OC)C1(CCN(C(=O)c3n[nH]nc3C)CC1)OCC2	0.07
CC(CN1CCC2(CC1)c1nc[nH]c1CCN2C(=O)C1CCC1)C(F)(F)F (stereo not drawn)	0.06
COc1ccc(C2(CNC(=O)C(=O)Nc3ccc(C)c(Cl)c3)CCCC2)cc1OC	-0.42
N#Cc1ccc(C(=O)Nc2cc3nn(-c4ccccc4)nc3cc2Cl)c(F)c1	-1
CC1CCCC(C)N1NC(=O)c1ccc(Cl)c(S(N)(=O)=O)c1 (stereo not drawn)	-0.36
CCN1CCSc2ccc(C(=O)NCc3ccc(OC(C)C)cc3)cc21	-0.7
Cc1cc(OCC(=O)NCCc2nc3ccccc3[nH]2)cc(C)c1Cl	-0.63
Cc1ccc2c(=O)cc(C(=O)Nc3sc4c(c3C(N)=O)CCCC4)oc2c1	-0.18
CCCNC(=O)c1c(NC(=O)c2ccccc2)sc2c1CCC(C(C)(C)C)C2 (stereo not drawn)	-1
O=C(Cn1c(=O)oc2cc(S(=O)(=O)N3CCCC3)ccc21)Nc1ccc(F)cc1F	-1.8
FC(F)(F)Oc1ccc2c(c1)NC(c1ccncc1)=NC(c1cccs1)=N2	0.37
COc1ccc(OC)c(NC(=O)Cn2nc3c(cc2=O)CCCC3)c1	-0.38
COc1ccc(-c2nc(Cn3c(SCc4ccccc4F)nc4ccncc43)c(C)o2)cc1OC	0.13
Cc1c(NC(=O)Nc2ccccc2C(F)(F)F)sc2nc3n(c(=O)c12)CCC(C)CC3 (stereo not drawn)	-0.15
CCc1ccccc1N(CC)C(=O)c1cc2c(s1)-c1ccccc1OC2	0.8
O=C(CSc1nc(-c2cccs2)cc(C(F)(F)F)n1)Nc1ccccc1Cl	0.46
COc1ccc(-c2nc(CS(=O)(=O)CC(=O)NCCc3ccc(C)cc3)c(C)o2)cc1	-0.82
CCn1cc(-n2ccnc2-c2ccc(OC)c(COC)c2)cn1	1.3
NS(=O)(=O)CCCC(=O)N1CCCC(CNC(=O)c2cc(F)ccc2F)C1 (stereo not drawn)	-0.66
Cc1ccc(CSc2ncc(Cl)c(C(=O)NCc3ccccc3)n2)cc1	-0.1
Cc1nn2c(-c3ccco3)ccnc2c1-c1ccc(Br)cc1	0.09
CC(C)C(=O)N1CCc2ccc(S(=O)(=O)NCCOc3ccccc3)cc2C1	0.68

Reprinted at random: 4 records from the list
SMILES	Bm FixLJ act
Cc1c(NC(=O)Nc2ccccc2C(F)(F)F)sc2nc3n(c(=O)c12)CCC(C)CC3 (stereo not drawn)	-0.15
Cc1nn2c(-c3ccco3)ccnc2c1-c1ccc(Br)cc1	0.09
FC(F)(F)Oc1ccc2c(c1)NC(c1ccncc1)=NC(c1cccs1)=N2	0.37
CC(C)C(=O)N1CCc2ccc(S(=O)(=O)NCCOc3ccccc3)cc2C1	0.68

3 of these compounds in a different format:
SMILES,Bm FixLJ act
COc1ccc(-c2nc(Cn3c(SCc4ccccc4F)nc4ccncc43)c(C)o2)cc1OC,0.13
CCn1cc(-n2ccnc2-c2ccc(OC)c(COC)c2)cn1,1.3
NS(=O)(=O)CCCC(=O)N1CCCC(CNC(=O)c2cc(F)ccc2F)C1 (stereo not drawn),-0.66

The listing continues:
SMILES	Bm FixLJ act
Cc1cc(C)cc(NC(=O)CN(c2cccc(C)c2C)S(=O)(=O)c2ccccc2)c1	-0.65
CNC(=O)c1noc(CNC(=O)Nc2ccccc2SC(C)C)n1	0.01
COc1ccc(-c2onc(N3CCCC3)c2C(=O)N2CCC(N)CC2)cc1	0.1
CN1C2CC[C@@H]1CC(OC(=O)[C@H](CO)c1ccccc1)C2 (stereo partly drawn)	0.39
Cc1ccc(N2C(=O)NC(NS(=O)(=O)c3ccccc3)(C(F)(F)F)C2=O)cc1C (stereo not drawn)	-0.81
CCC(=O)N1CCc2cc(Br)cc(S(=O)(=O)N3CCC(C(=O)Nc4ccccc4F)CC3)c21	-2
Oc1ccc(Nc2nc3ccccc3n3cnnc23)cc1	-0.56

Only part of the results is shown (hit frequency here may not be typical).
